# Screens (PubChem)
# CtBP-E1A inh: inhibitors of CtBP/E1A interaction | AlphaScreen GST-E1A/His-CtBP binding, 1536-well; active compounds read low; control for the full effect not named in the record | activity change, % (concentration not given with the values) | 340,000 tested, 0.49% active; in the data active means activity change below about -65%; inconclusive means about -30% to -65%; inactive means above about -30%; further: on the % scale 0 is the no-effect control and ±100 the full control effect
#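 Steps: dispense buffer (Tris pH 8.0, NaCl 300 mM, TCEP 1 mM, BSA, Tween 20); add 5X protein mix (GST-E1A, His-CtBP, 125 nM each); pin 23 nL compound; 2 h at 37 °C, dark; add 5X beads (50 ug/mL); 1 h; read.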
# Six1-Eya2 inh: Six1/Eya2 interaction inhibition; Q15475+O00167; AlphaScreen GST-Six1/His-Eya2 binding, biochemical; active compounds read low; control for the full effect not named in the record; activity change, % (no concentration beside the values); 360,000 tested, 0.56% active; in the data active = activity change below about -65%; inconclusive = about -30% to -65%; inactive = above about -30%; further: on the % scale 0 is the no-effect control and ±100 the full control effect
#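 Homogeneous AlphaScreen proximity assay pairing GST-Six1 with His-tagged Eya2 (added as 5X mix: 250 nM and 500 nM) in 50 mM Tris pH 8.0, 300 mM NaCl, 1 mM TCEP. Glutathione donor and nickel acceptor beads; 1 h, 37 °C, dark.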
# gsp ag: gsp mutant agonism; 340,000 tested, 0.13% active; Potency, µM (series often up to 76.9 µM), without a hit: top-dose activation (cAMP increase), most hits filed as activators; gsp mutant cells, cAMP HTRF, 30 min; control for the full effect not named in the record; active = well fitted activation curve with a large enough effect; inconclusive = small, poorly fitted or top-dose-only effect, or another doubt; inactive = no such curve, though single readings can be large or run the other way; cell line not stated here;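 further: phosphodiesterase inhibitor Ro 20-1724 added with compounds to block cAMP breakdown; potency means the concentration at half of the fitted maximal effect; nearly all actives have a fitted effect of over 60% in size; about a fifth of the inactives were tested at one dose only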
#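 Cells stably selected in G418 were plated at 2000/well, grown 16-24 hr, then given compounds in DMSO with the PDE inhibitor […] (300 uM solution added) for 30 min at 37C; cAMP was read by HTRF.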
# D2 potentiator: potentiates the human D2 dopamine receptor allosterically; P14416; DiscoveRx D2 beta-arrestin cells, luminescence, 90 min; 100% = 57 uM dopamine signal; potentiation, % (concentration not given with the values); 360,000 tested, 0.23% active; active = potentiation of 50% or more; inconclusive = 30% to 50%; inactive = 30% or less;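 further: compound concentration not given in the record; tested on top of an EC20 dose of dopamine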
# Target sequence (P14416 whole entry, looked up): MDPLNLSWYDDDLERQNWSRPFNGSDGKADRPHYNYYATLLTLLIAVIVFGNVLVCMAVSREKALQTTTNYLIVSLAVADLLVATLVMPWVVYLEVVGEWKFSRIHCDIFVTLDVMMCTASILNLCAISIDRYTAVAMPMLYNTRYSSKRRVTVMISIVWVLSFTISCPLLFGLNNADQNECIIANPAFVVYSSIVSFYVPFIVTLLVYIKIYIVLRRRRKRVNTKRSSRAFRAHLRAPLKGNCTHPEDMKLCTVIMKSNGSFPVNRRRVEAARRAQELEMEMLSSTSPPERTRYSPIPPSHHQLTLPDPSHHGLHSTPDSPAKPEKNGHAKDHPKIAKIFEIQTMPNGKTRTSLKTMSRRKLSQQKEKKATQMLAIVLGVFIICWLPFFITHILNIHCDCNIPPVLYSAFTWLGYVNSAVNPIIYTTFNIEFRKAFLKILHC
#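 PathHunter D2 cells, attached overnight at 37 deg C, received compound in DMSO plus dopamine at EC20 (50 nM final) for 90 min at 37 deg C. Beta-arrestin recruitment was read as luminescence after 1 h with detection reagent at ambient temperature.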
# D2 agonist: activates the human D2 dopamine receptor; activation, % (concentration not given with the values); DiscoveRx PathHunter D2 beta-arrestin, luminescence, 90 min; 100% = 57 uM dopamine signal; P14416; 360,000 tested, 0.084% active; in the data active = activation above about 40%; inconclusive = about 15% to 40%; inactive = below about 15%; further: compound concentration not given in the record; the text of the record calls up to 30% inactive
#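 Agonist mode: compounds alone added to overnight-plated D2 PathHunter cells for 90 min at 37 C, with 57 uM final dopamine (EC100) defining full response. Beta-arrestin recruitment detected by chemiluminescent reagent, read after 1 h at ambient temperature.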
# gsp antagonist: gsp mutant antagonism; Potency, µM (top dose mostly 76.9 µM), without a hit: at the highest dose activity change, negative = inhibition, actives largely listed as inhibitors; 340,000 tested, 0.4% active; gsp-mutant cells, cAMP HTRF, 30 min; control for the full effect not named in the record; active = falling curve of any shape with a large fitted effect; inconclusive = falling curve, mostly with a smaller effect; inactive = flat or rising curve; cell line not stated here;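 further: intracellular cAMP measured with PDE inhibitor Ro 20-1724 present during compound exposure; potency means the concentration at half of the fitted maximal effect; on the % scale 0 is the no-effect control and ±100 the full control effect; nearly all actives have a fitted effect of over 65% in size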
#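 Cells, 2000/well, grown 16–24 h in DMEM 10% FBS with 0.5 mg/ml G418, then compounds plus […] (300 uM addition stock), 30 min at 37C. cAMP read by HTRF (cAMP-d2 and anti-cAMP antibody-K in lysis buffer) after 30 min RT.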
# * = called active by the depositor; ? = inconclusive; / = no result given; [ ] = dose if it differs, or a comment.
SMILES,CtBP-E1A inh,Six1-Eya2 inh,gsp ag,D2 potentiator,D2 agonist,gsp antagonist
O=C(CS(=O)(=O)Cc1ccccc1)Nc1ncccn1,7,6,-2%,2,-1.3,6%
COc1ccc(C(NC(=O)CNC(C)=O)C(=O)Nc2ccc(C(C)C)cc2)cc1 (centres undefined),0,2,2%,-3,-1.1,14%
CCN(CC)CCn1c(=N)n(CC(=O)c2ccc(Br)s2)c2ccccc21,-4,-3,-9%[15.4 µM],-21,1.4,5%
Cc1ccc(C(=O)Nc2ccc(Cc3ccncc3)cc2)cc1[N+](=O)[O-],-1,-5,-1%,-9,-3.0,?
O=C(C[C@@H]1C/C=C\CCCC(=O)OC[C@@H]2CCCN2C1=O)NCCO,7,3,/,-5,-1.3,10%
CCN(CC)CCN(C(=O)C1=COCCO1)c1nc2c(OC)ccc(OC)c2s1,1,-5,-1%[15.4 µM],-42,-5.6,11%
COc1ccc(CN2C(=O)C(O)(CC(=O)c3ccc4c(c3)OCO4)c3ccccc32)cc1OC (centres undefined),-4,-1,?,-5,-0.6,-6%
Cn1c(N)c(C(=O)COC(=O)Cc2ccsc2)c(=O)n(C)c1=O,-7,7,?,9,0.1,3%
CCN(C(=O)COC(=O)/C(=C/c1ccccc1)NC(C)=O)c1c(N)n(Cc2ccccc2)c(=O)[nH]c1=O,13,-3,-2%,-11,-2.1,15%
CCOC(=O)CSc1nnc(CNC(=O)c2ccc(S(=O)(=O)N3CCCC3)cc2)n1C,-1,11,-17%,-2,-2.3,10%
COc1ccccc1CNC1CCCc2ccccc21 (centres undefined),11,4,-33%[inhibitor],-12,3.1,12%
CCOc1ccc(CNC(=O)c2ccc3nc(N4CCOCC4)sc3c2)cc1,4,3,?,3,-3.3,-5%
COCCNCCCCOc1ccccc1-c1ccccc1,2,1,-19%,-36,-5.4,23%
CCn1c(=O)c2c(nc(SCC(=O)N3CCC(C)CC3)n2C)n(C)c1=O,-2,1,-3%[15.4 µM],3,-1.8,1%
CC1CN(C(=O)COC(=O)c2cc3ccccc3cc2O)CC(C)O1 (centres undefined),6,4,-20%[15.4 µM],10,-0.1,2%
COC(=O)CC1C(=O)NCCN1C(=O)CSc1nc2ccc([N+](=O)[O-])cc2s1 (centres undefined),10,-9,22%[15.4 µM],-2,-12,-6%
CC1(C)[C@@H](O)CC[C@]2(C)C3C(O)C=C4[C@H]5C[C@@](C)(CO)CC[C@]5(C)CC[C@]4(C)[C@]3(C)CC[C@@H]12 (some centres undefined),11,6,/,-2,-1.9,3%
O=C(Oc1ccc2ccccc2c1)c1ccccc1,52,58,-39%,-6,-2.0,-1%
CCC(=O)Nc1nc(C)c(-c2csc(Nc3cccc(C(=O)O)c3)n2)s1,-2,-28,1%[15.4 µM],-3,-3.0,-8%
CCc1cc2c(-c3ccccc3)cc(=O)oc2cc1OC(C)C(C)=O (centres undefined),-6,22,-29%[15.4 µM],1,-0.9,-18%
COc1ccc(NC(=O)CSCC(=O)Nc2ccccc2C(=O)N2CCCCC2)cc1,-4,6,-2%,4,-0.6,-4%
C[C@]12c3[nH]c4ccc(Cl)cc4c3CCN1C(=O)[C@@H](CC(=O)NCCN1CCOCC1)C[C@@H]2C(=O)N1CCOCC1,0,-1,/,/,2.5,8%
O=C(Nc1nc2ccccc2s1)C1CC(=O)N(c2ccc(Cl)cc2)C1 (centres undefined),-1,-3,-10%,12,-3.0,-32%
Cc1ccc(-c2nnc(Nc3ccc(C(N)=O)cc3)c3ccccc23)cc1S(=O)(=O)NCC1CCCO1 (centres undefined),-27,?,2%,-23,0.1,-13%
COc1cc(/C=C2/C(C)=C(C#N)c3nc(N)c(C#N)c(C)c32)ccc1OCC(=O)O,/,?,8%[15.4 µM],6,12,-1%
CC(=O)c1ccc(Nc2nc(C(N)C(C)C)cs2)cc1 (centres undefined),-12,10,/,-1,-1.5,/
O=C(CSc1nccc(=O)[nH]1)c1ccccc1Br,-68*,-70*,-2%,-20,-4.1,-2%
O=S(=O)(NCc1cn2ccsc2n1)c1ccc2c(c1)OCCO2,5,-4,-2%,-15,-1.7,4%
COCCNC(=O)Cn1nc(-c2ccc(C)cc2)c2ccccc2c1=O,5,0,23%,3,-6.6,-1%
O=C(NCCCN1CCOCC1)/C(=C/c1ccc(F)cc1)NC(=O)c1ccccc1,-7,5,0%[15.4 µM],-8,-8.2,16%
OCC1(CCc2ccccc2)CCN(Cc2ccc(OC(F)F)cc2)CC1,1,3,-2%,-15,-2.5,13%
COc1ccc(S(=O)(=O)Nc2ccc3c(c2)C(=O)N([C@@H](C)CO)C[C@H](C)[C@H](CN(C)S(=O)(=O)c2ccc(F)cc2)O3)cc1,-4,-6,/,/,1.9,-15%
CCOC(=O)c1cc(=O)c2ccc(OCC(=O)Nc3ccc(F)cc3)cc2o1,4,4,-95%[inhibitor],1,-2.1,-6%
CCn1cnc2scc(-c3ccc(C)c(C)c3)c2c1=O,/,1,-18%,-9,-6.7,-8%
Cc1cc(C)cc(NC(=O)c2ccc(S(=O)(=O)NCc3cccnc3)cc2)c1,-1,-9,6%[15.4 µM],-8,-3.3,4%
COC(=O)/N=C(/Cc1ccc(OC)cc1)c1ccc(OC)cc1,8,4,17%,0,-0.4,-3%
C=CCNC(=O)c1ccc2c(c1)S(=O)(=O)c1ccccc1C2=O,24,20,/,13,4.0,14%
CCN(CC)C(=O)C1=C(C)N(CCCOC)C(=O)C(CC(=O)NCc2ccco2)C1 (centres undefined),0,14,?,-1,-0.4,/
Cc1ccc(NC(=O)c2c(C)noc2C)cc1S(=O)(=O)N1CCOCC1,-2,-1,-18%,22,2.8,8%
COc1ccccc1N(CC(=O)Nc1ccccc1C(=O)NCC(C)C)S(C)(=O)=O,12,1,-37%[inhibitor],-8,1.7,-11%
C#CCSc1nc2ccccc2n1C(=O)c1ccc(S(=O)(=O)N2CCCCC2)cc1,-5,3,44%,-5,0.1,-8%
Cc1cccc(C)c1NC(=O)COC(=O)c1ccccc1Nc1ccccc1,7,14,-21%,2,-0.4,9%
NS(=O)(=O)c1ccc(N2CCOCC2)c(C(=O)NCCCSc2ccccc2)c1,7,-5,19%,-11,2.2,-6%
O=C(COc1ccccc1)NCc1ccc(-n2cccc2)cc1,/,-5,-15%,-3,1.5,-5%
Cc1cc(C(=O)Nc2ccc(C#N)cc2)on1,/,2,14%,-8,6.4,5%
Nn1c(SCC(=O)NCCC2=CCCCC2)nnc1-c1cccnc1,-2,6,19%,-10,-0.5,5%
CC(C)N(C(C)C)S(=O)(=O)c1ccc(N2CCc3ccccc3C2)nc1,-3,4,31%[15.4 µM],2,-4.6,-18%
CN(CC(=O)Nc1cccc(F)c1)C(=O)c1ccc(S(=O)(=O)N2CCCC2)cc1,-3,3,24%,-10,-2.9,2%
Cc1cc([N+](=O)[O-])cc2c1NC(=O)C2(O)N1CCOCC1 (centres undefined),0,0,7%,-6,-1.1,22%
COC(=O)c1c(-c2cccs2)csc1NC(=O)c1cccnc1,-4,3,7%,-12,4.0,-18%
Cc1cc(-c2ccccc2)nc(N/N=C/c2ccccc2)n1,0,2,15%,-7,-4.1,-15%
O=C(CCl)Nc1ccc(Oc2cnc3ccccc3n2)cc1,11,5,-1%,-2,-2.2,8%
Cc1nn(C)c2ncc(C(=O)c3ccccc3O)cc12,1,4,5%[15.4 µM],5,-0.6,-10%
COCCCC1CCN(Cc2cn[nH]c2-c2cc(OC)c(OC)c(OC)c2)CC1,7,4,14%,-10,-1.1,-4%
CCC(=O)Nc1ccc2c(c1)nc(CN1CCN(C(C)=O)CC1)n2C,-1,0,6%,5,-2.1,9%
CCOC(=O)c1cc2c(=O)n3ccccc3nc2n(CCCOC)c1=NC(C)=O,3,-1,17%,-10,-2.6,13%
CC1CC(=O)N(CC(=O)N2CCCC2)c2ccccc2S1 (centres undefined),4,1,-9%,-3,-0.3,11%
Cc1cc2c(c(=O)o1)C(Cc1ccccc1)C(C#N)=C(N)O2 (centres undefined),2,3,3%,-1,0.1,1%
Cc1ccc2nc(-c3cccc(Br)c3)cc(C(=O)Nn3cnnc3)c2c1,0,-6,12%[15.4 µM],-8,-5.7,-13%
COC(=O)Cn1c2ccc(F)cc2c2nc(C)sc21,4,-1,-52%[inhibitor],-7,-3.7,-2%

# Further structures:
SMILES,CtBP-E1A inh,Six1-Eya2 inh,gsp ag,D2 potentiator,D2 agonist,gsp antagonist
Cc1ccc(O)c(C2=NOC(O)(C(F)(F)C(F)F)C2)c1 (centres undefined),3,-1,-2%,-15,-2.6,7%
CCSc1nnc(NC(=O)CCNS(=O)(=O)c2ccccc2F)s1,5,-2,23%,-2,2.5,-6%
CCOC(=O)c1sc(NC(=S)NC(=O)C2CC2)cc1C,14,-11,9%[15.4 µM],-9,2.4,-8%
Cc1ccc(NC(=O)CNC(=O)OCc2ccccc2)cc1C,7,12,3%[15.4 µM],-6,-2.2,-4%
CCN(CC)c1c2c(c(C#N)c3nc4ccccc4n13)CCC2,5,6,3%,1,0.0,-1%
O=C(CSc1nccn1Cc1ccco1)Nc1cccc(F)c1,-2,0,?,-14,-6.7,-14%
CCn1c(=O)c2c(nc3n2CCN3c2ccccc2)n(C)c1=O,-9,-4,-5%[15.4 µM],-16,-2.9,-11%
CCc1ccc(NC(=S)N2CCC(NC(=O)c3ccccc3OC)CC2)cc1,5,-5,-9%[15.4 µM],-9,-1.2,-17%
CCn1c(=O)c(CCC(=O)N2CCN(c3ccccn3)CC2)c(C)c2c(C)nn(-c3ccccc3)c21,3,4,?,-4,6.2,-9%
COc1ccccc1N(CC(=O)N/N=C/c1ccc(SC)cc1)S(C)(=O)=O,-10,-19,3%,-26,3.4,-13%
CCOc1ccc(N(CC(=O)NC2CCCCC2)C(=O)CCC(=O)Nc2nccs2)cc1,1,6,11%[15.4 µM],-2,-1.8,?
COc1ccccc1C1C(C#N)=C(N)Oc2cc(C)n(Cc3ccccn3)c(=O)c21 (centres undefined),2,2,3%,4,1.1,-5%

# Given with bars between the fields: six of the compounds above.
compound | CtBP-E1A inh | Six1-Eya2 inh | gsp ag | D2 potentiator | D2 agonist | gsp antagonist
COc1ccccc1C1C(C#N)=C(N)Oc2cc(C)n(Cc3ccccn3)c(=O)c21 (centres undefined) | 2 | 2 | 3% | 4 | 1.1 | -5%
CCc1ccc(NC(=S)N2CCC(NC(=O)c3ccccc3OC)CC2)cc1 | 5 | -5 | -9%[15.4 µM] | -9 | -1.2 | -17%
CCN(CC)c1c2c(c(C#N)c3nc4ccccc4n13)CCC2 | 5 | 6 | 3% | 1 | 0.0 | -1%
Cc1ccc(O)c(C2=NOC(O)(C(F)(F)C(F)F)C2)c1 (centres undefined) | 3 | -1 | -2% | -15 | -2.6 | 7%
CCOC(=O)c1sc(NC(=S)NC(=O)C2CC2)cc1C | 14 | -11 | 9%[15.4 µM] | -9 | 2.4 | -8%
COc1ccccc1N(CC(=O)N/N=C/c1ccc(SC)cc1)S(C)(=O)=O | -10 | -19 | 3% | -26 | 3.4 | -13%
